# Screening data: PubChem, National Center for Advancing Translational Sciences (NCATS)
# VDR inhibitor = Inhibitors of the vitamin D receptor (VDR): qHTS | Vitamin D3 receptor (Homo sapiens), P11473 | 400,000 tested, 0.93% active | Potency, µM, inactives show max response, negative = inhibition, usual class: inhibitors | AID 504847, 2011 | VDR-SRC2-3 peptide fluorescence polarization, 2 h; active = well fitted inhibition curve with a large enough effect; inconclusive = small, poorly fitted or top-dose-only effect, or another doubt; inactive = no such curve, though single readings can be large or run the other way; also: series mostly up to about 120 µM
# Target sequence (P11473 whole entry, looked up): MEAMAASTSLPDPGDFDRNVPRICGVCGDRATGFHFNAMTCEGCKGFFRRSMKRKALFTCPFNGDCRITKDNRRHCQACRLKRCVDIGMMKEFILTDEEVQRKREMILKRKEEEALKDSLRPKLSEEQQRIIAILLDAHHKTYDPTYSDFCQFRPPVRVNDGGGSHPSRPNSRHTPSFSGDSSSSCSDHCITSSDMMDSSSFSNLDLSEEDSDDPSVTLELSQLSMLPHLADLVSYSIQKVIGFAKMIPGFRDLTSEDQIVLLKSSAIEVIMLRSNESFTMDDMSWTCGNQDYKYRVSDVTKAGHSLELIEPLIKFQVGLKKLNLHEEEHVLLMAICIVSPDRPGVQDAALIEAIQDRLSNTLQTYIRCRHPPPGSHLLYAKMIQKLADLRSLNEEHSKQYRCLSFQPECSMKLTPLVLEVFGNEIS
#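 Signal is fluorescence polarization, reporting how far test compounds block the interaction of VDR with the SRC2-3 coregulator peptide after a 2 h room-temperature incubation.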
# Starred values were filed as active, the others as inactive; u = inconclusive; & = joins results of further samples. % is scaled to controls: 0 for no effect and ±100 for the full control effect; potency is read from the fitted curve at half-maximal effect.
SMILES,VDR inhibitor
Cn1ncc(Cl)c1C(=O)N1CCN(c2ccc(F)cc2)CC1,15.3%
COc1ccc(CCNC(=O)C2CCN(C(=O)c3ccc(Br)cc3)CC2)cc1OC,-11.1%
Cc1nc2c(C#N)c(-c3ccc(Cl)cc3)ccn2n1,3.5%
CC(=C\c1ccccc1)/C=C1/SC(=O)N(CCCC(=O)Nc2ccc(C(=O)O)cc2)C1=O,-0.8%
Cc1nnc(SCCOC(N)=O)n1C,-7.1%
Cc1ccc(C(=O)NC(Cc2cccc(F)c2)C(=O)O)cc1 (stereo not drawn),17.2%
NC(=O)CSc1nnc(NC(=O)c2cccc(S(=O)(=O)N3CCCCC3)c2)s1,-6.6%
Cc1[nH]c2ccc(C(=O)Nc3ccncc3)cc2c1C,-1.2%
O=[N+]([O-])c1cc(O)c2ncccc2c1,1.5%
COc1ccc(NC(=O)CN(C)C(=O)CNC(=O)c2sc3ccccc3c2Cl)cc1,-1.9%
O=c1c2ncn([C@@H]3O[C@@H]4COP(=O)(O)O[C@H]4[C@H]3O)c2nc2[nH]c(-c3ccccc3)cn12,7.4%
Cc1cccc(-n2ccnc2SCC(=O)N2CCCc3ccccc32)c1C,-16.0%
COC(=O)c1cc(S(=O)(=O)N2CCN(c3ccccc3OC)CC2)cn1C,-24.3%
CC(=O)c1cc2c(cc1NC(=O)CN1CCCCCCC1)OCO2,6.7%
Cc1ccc(NC(=O)CN2C=NS(=O)(=O)c3ccccc32)cc1,13.9%
O=C(OCCN1CCOCC1)c1ccc(Cl)cc1Cl,13.3%
Cc1ccc(C(=O)N2CCCC2)cc1S(=O)(=O)Nc1cccc(C)c1C,-5.4%
Cc1nnc(SCC(=O)Nc2ccc3c(c2)OCCO3)n1N,21.2%
CCSc1nnc(NC(=O)c2c(-c3ccccc3Cl)noc2C)s1,-7.9%
O=C(NCCC(c1ccccc1)c1ccco1)c1cccs1 (stereo not drawn),-14.3%
O=C(Nc1nnc(SCc2ccc(Cl)cc2)s1)c1cnccn1,8.2%
CN1CCCN(C(=O)CSc2ccccc2)CC1,3.2%
CCCCOC(=O)/C(=C\c1ccc([N+](=O)[O-])o1)NC(=O)c1ccccc1,-8.6%
NC(=O)NNC(=S)Nc1cccc2ccccc12,-27.8%
Cc1nc2ccccc2nc1OCC(=O)Nc1ccccc1,-2.0%
CCOc1ccc(NS(=O)(=O)c2ccc(C(=O)N3CC(C)OC(C)C3)cc2)cc1 (stereo not drawn),0.1%
COc1ccc(F)cc1C(=O)C1CCCN(C(=O)CCN2CCCCO2)C1 (stereo not drawn),-6.6%
CC(=O)N1N=C(c2ccc([N+](=O)[O-])cc2)CC1c1ccccc1Cl (stereo not drawn),-20.9%
CCN(CC(=O)Nc1ccccc1C(F)(F)F)C(=O)C1CCC1,-27.7%
O=S(=O)(NCC(c1ccco1)N1CCN(c2ccc(F)cc2)CC1)c1ccc2c(c1)OCCO2 (stereo not drawn),-4.5%
CC(=O)c1ccc(N2CCN(C(=O)c3ccc(Cn4c(=S)[nH]c5ccc(N6CCOCC6)cc5c4=O)cc3)CC2)cc1,-1.5%
Cc1cc(S(=O)(=O)Nc2cccc(O)c2)c(C)s1,4.6%
C=C(C)COc1ccc(-c2ncnc(C(F)(F)F)c2-c2ccccc2)c(O)c1,-9.6%
CS(=O)(=O)Nc1cccc(-c2nc(Nc3ccccc3)c3ccccc3n2)c1,-2.1%
Cc1nc2ccccn2c1C(=O)N/N=C/c1ccc(F)cc1,-0.3%
CCOC(=O)CC1ON(C)C(=O)N1c1ccc(Cl)cc1Cl (stereo not drawn),-7.0%
COC(=O)C1=C(C(=O)OC)[C@@H]2N(Cc3ccccc3)c3ccccc3[C@@]23C[C@@H](C(=O)OC)N=C3N1,-2.8%
CCCN(CC)c1ncnc2[nH]ncc12,8.8%
C=CCN(C)NC(=S)Nc1ccccc1,-13.5%
O=C(OCC(=O)N1CCCC1=O)c1cc(Cl)ccc1O,0.3%
N#CCSc1nc(-c2ccccc2)c2cc(Cl)ccc2n1,-14.3%
Cc1cc2[nH]c(=O)cc(-c3ccccc3)n2n1,-13.0%
Cc1ccc(NC(=O)CSc2nnc(Cn3cnc4ccccc43)o2)c(C)c1,-3.4%
NC(=O)C1(N2CCCCC2)CCN(C(=O)c2ccc(C#Cc3ccccc3)o2)CC1,9.9%
COc1ccc(CNS(=O)(=O)c2ccc3c(c2)N(C)CCO3)cc1,4.7%
CCCC/C=C/[C@H](c1ccccc1)[C@H](CO)Cc1cnc2ccccc2c1,2.2%
COc1cccc(OCC(O)CN2CCOCC2)c1 (stereo not drawn),-2.4%
Oc1ccc(/C=N/Nc2ccnc3cc(Cl)ccc23)cc1O,-7.1%
CCOC(=O)C1=C(O)/C(=C/c2ccc(OCC(=O)Nc3ccc(C)cc3)cc2)N=C1C,-2.3%
CCN(CC)C(=O)CN1C(=O)C2(NC(=O)c3ccccc3N2)c2ccccc21 (stereo not drawn),-1.4%
O=C(NCc1ccncc1)C(=O)NC1CC1,3.3%
O=C(C1Cc2ccccc2O1)N1CCCCC1 (stereo not drawn),8.9%
Cc1cc(C)cc(NC(=O)c2cc(S(=O)(=O)N3CCOCC3)cn2C)c1,6.3%
CCOC(=O)N1CCN=C1SCc1ccc(Cl)c(Cl)c1,-18.0%
CCC(Oc1ccccc1)C(=O)Nc1ccc(S(=O)(=O)NCC2CCCO2)cc1 (stereo not drawn),9.9%
CNC(=O)Cn1cc(S(=O)(=O)Cc2ccccc2F)c2ccccc21,-2.7%
CN(C)/C=N/C(=S)Nc1cc(Cl)cc(Cl)c1,-6.7%
Cc1ccc(-c2nc3scc(CCNS(=O)(=O)c4c(C)noc4C)n3n2)cc1,19.6%
CS(=O)(=O)N1CCC2(CC1)CN(Cc1ccccc1)C2,13.5%
CCN(CC)CC(=O)Nc1ccc(-c2ccc(NC(=O)CN(CC)CC)c(OC)c2)cc1OC,2.8%

# No new results follow: 15 of the compounds above.
SMILES,VDR inhibitor
Cc1ccc(NC(=O)CSc2nnc(Cn3cnc4ccccc43)o2)c(C)c1,-3.4%
NC(=O)C1(N2CCCCC2)CCN(C(=O)c2ccc(C#Cc3ccccc3)o2)CC1,9.9%
COc1ccc(CNS(=O)(=O)c2ccc3c(c2)N(C)CCO3)cc1,4.7%
CCCC/C=C/[C@H](c1ccccc1)[C@H](CO)Cc1cnc2ccccc2c1,2.2%
COc1cccc(OCC(O)CN2CCOCC2)c1 (stereo not drawn),-2.4%
Oc1ccc(/C=N/Nc2ccnc3cc(Cl)ccc23)cc1O,-7.1%
CCOC(=O)C1=C(O)/C(=C/c2ccc(OCC(=O)Nc3ccc(C)cc3)cc2)N=C1C,-2.3%
CCN(CC)C(=O)CN1C(=O)C2(NC(=O)c3ccccc3N2)c2ccccc21 (stereo not drawn),-1.4%
O=C(NCc1ccncc1)C(=O)NC1CC1,3.3%
O=C(C1Cc2ccccc2O1)N1CCCCC1 (stereo not drawn),8.9%
Cc1cc(C)cc(NC(=O)c2cc(S(=O)(=O)N3CCOCC3)cn2C)c1,6.3%
CCOC(=O)N1CCN=C1SCc1ccc(Cl)c(Cl)c1,-18.0%
CCC(Oc1ccccc1)C(=O)Nc1ccc(S(=O)(=O)NCC2CCCO2)cc1 (stereo not drawn),9.9%
CNC(=O)Cn1cc(S(=O)(=O)Cc2ccccc2F)c2ccccc21,-2.7%
CN(C)/C=N/C(=S)Nc1cc(Cl)cc(Cl)c1,-6.7%

# Other entries.
SMILES,VDR inhibitor
O=C(O)c1ccccc1CSc1ccccn1,3.3%
CCSc1ccccc1C(=O)Nc1nncs1,-14.1%
CCOc1ccc(C2C(C#N)=C(C)NC3=C2C(=O)c2ccccc23)cc1 (stereo not drawn),9.0%
O=[N+]([O-])c1cc([N+](=O)[O-])c(Oc2ccc(F)cc2F)cc1NN1CCCCC1,1.4%
Cc1onc(-c2ccccc2)c1C(=O)NCCc1ccc(S(N)(=O)=O)cc1,-0.5%
Cc1cccc(OCCC(=O)Nc2ccccc2C(N)=O)c1,9.8%
CCCCN(CC)CCNc1c(NC2CCN(C(=O)OCC)CC2)c(=O)c1=O,-1.4%
C[C@H]1CN([C@@H](C)CO)C(=O)Cc2cc(NC(=O)Cc3ccccc3)ccc2O[C@H]1CN(C)S(=O)(=O)c1cccs1,-17.1%
CCCCCCCCCCCC(=O)N1CC(=O)NC(=O)C1,-0.7%
Cc1ccc(NC(=S)N(Cc2ccccc2)Cc2cccs2)c(C)c1,-29.7%
COc1ccc(NC(=O)c2c(Nc3ccccc3)sc(C(=O)c3ccc(F)cc3)c2N)cc1,u
COc1ccc(Cl)cc1NC(=O)c1cc(S(=O)(=O)N2CCC(C)CC2)cn1C,-4.5%
C=CCn1c(-c2cccn(Cc3ccc(Cl)cc3Cl)c2=O)n[nH]c1=S,-17.0%
Cc1ccc(NC(=O)CCS(=O)(=O)c2ccccc2)cc1S(=O)(=O)N1CCCCCC1,18.3%
C=CCNC(=O)CSc1nc2cc(C(=O)OCC)ccc2n1CC,16.5%
COc1ccc2[nH]cc(CCNC(=O)c3ccccc3Cl)c2c1,1.7%
COc1ccc(-c2[nH]ncc2-c2cscn2)c(O)c1,2.9%
Fc1ccccc1N1CCN(C2CCCN(Cc3ccccc3C(F)(F)F)C2)CC1 (stereo not drawn),-4.4%
COc1ccc(C(=O)c2c[nH]c(C(=O)NCc3ccco3)c2)cc1,-7.8%
CCN1C[C@@H]2[C@@H]3C(=O)N(Cc4ccccc4)C(=O)[C@@H]3[C@](CC)(C1=O)N2C(=O)c1ccc(Br)cc1,-5.2%
CC(=O)NCc1ccc(-c2csc(NC(=O)CCc3nc4ccccc4c(=O)[nH]3)n2)s1,-10.0%
Cc1csc(NC(=O)c2ccc(Cl)nc2)n1,-3.5%
CCOc1ccc2oc(-c3ccccc3)c(C(=O)N3CCN(C)CC3)c2c1,1.2%
C=CCC1c2cccc(C(=O)O)c2C(=O)N1c1ccc(F)cc1 (stereo not drawn),-3.5%
COc1ccc(C(=O)CCC(=O)O)cc1,-8.6%
COc1ccc(NC(=O)CCc2nnc3ccc(N4CCN(c5cccc(OC)c5)CC4)nn23)cc1,5.3%
CCN(CC)c1ncnc2c1ncn2[C@@H]1O[C@@H](COP(=O)(O)OP(=O)(O)C(Br)(Br)P(=O)(O)O)[C@H](O)[C@H]1O,-2.1%
CCn1c(=O)cc(OCC(=O)NCCCN2CCC(C)CC2)c2ccccc21,6.5%
Cc1ccc(NC(=O)C2CCCO2)c(Br)c1 (stereo not drawn),-7.2%
COc1ccccc1-c1nc(NCCc2cnc[nH]2)c2ccccc2n1,-10.4%
COc1ccc(C(CNC(=O)c2ccc(S(=O)(=O)N(C)C)cc2)N2CCCCC2)cc1 (stereo not drawn),4.1%
C[C@H](CO)N1C[C@H](C)[C@@H](CN(C)Cc2ccncc2)Oc2c(NS(=O)(=O)c3ccc(F)cc3)cccc2C1=O,16.4%
c1ccc(-c2noc(CN3CCc4sccc4C3)n2)cc1,-7.5%
Cc1cnn(C(=O)Cn2nc(C(F)F)c(Br)c2C)c1,-3.9%
O=C(OCC1CCCO1)c1ccc2c(c1)N(Cc1cccc(Cl)c1)C(=O)c1ccccc1S2(=O)=O (stereo not drawn),7.5%
CC/C(=N/Nc1cccc(C)c1)c1cnnc(SC)n1,-2.6%
COCCNC(=O)c1ccc2nc(Cc3ccccc3)oc2c1,6.4%
Cc1cc(C)n2ncc(/C(N)=N/OC(=O)c3ccccc3F)c2n1,-5.2%
CCOC(=O)Nc1ccc2c(c1)OCO2,13.0%
CCOC(=O)c1ccc(NC(=S)NC(=O)c2cncc(Br)c2)cc1,-2.1%
COc1ccc(NC(=O)c2cccc(NS(=O)(=O)c3ccccc3)c2)cc1,-10.9%
Cc1cc(C)c2c(=O)[nH]c(SCC(=O)c3ccc(C)c(C)c3)nc2n1,-6.1%
Cc1ccc(-n2nc3ccc(N)cc3n2)cc1Cl,5.3%
Cc1nnc(NC(=O)CSc2nc(C3CCCCC3)nc3ccccc23)s1,-4.1%
CC(Oc1ccccc1F)C(=O)NN (stereo not drawn),1.7%
Cn1c(=O)n(C)c2cc(S(=O)(=O)Nc3ccc(F)cc3)ccc21,1.4%
CCN(C(=O)C1CCCO1)c1ccccc1 (stereo not drawn),-8.0%
COc1cc(OC)cc(C(=O)Nc2ccc(-c3nc4ccccc4o3)cc2)c1,0.0%
COc1cc(/C=C(\C#N)C(=O)N2CCOCC2)cc(Br)c1O,7.5%
O=C(C[C@@H]1C/C=C\C[C@H](NC(=O)OCC2c3ccccc3-c3ccccc32)C(=O)OC[C@H]2CCCN2C1=O)NCCO,-31.8%
Cc1ccc(-n2c3c(c(=O)[nH]c2=O)C(NS(=O)(=O)c2ccc(C)cc2)(C(F)(F)F)C(=O)N3)cc1 (stereo not drawn),-23.6%&4.8%
O=C(NCCS(=O)(=O)N1CCc2ccccc2C1)c1ccccc1,0.8%
O=C(Nc1ccccn1)C1CCN(S(=O)(=O)c2ccc3c(c2)OCCO3)CC1,-15.3%
Cc1cc(SCC(=O)Nc2ccccc2C)nc(C)n1,-3.7%
O=[N+]([O-])c1cccc(S(=O)(=O)NCCCN2CCOCC2)c1,-8.6%
COC(=O)c1c(C)c(C)nc(N)c1C#N,5.4%
COc1ccccc1CNc1cc(-c2ccccc2Cl)ncn1,-15.5%
CC(=O)N(Cc1ccc(Cl)cc1)c1cnccn1,12.2%
CCCNC(=O)N1CCC(C(=O)c2ccc(F)cc2)CC1,17.9%
O=C(CCCCC(=O)Nc1ccccc1)Nc1ccccc1,-14.8%
# Remaining list, next part:
SMILES,VDR inhibitor
CN(Cc1ccccc1)C(=O)COC(=O)c1cc(Cl)nc(Cl)c1,-0.8%
CCOC(=O)c1sc2nc(C(C)C)c3c(c2c1N)CCC3,3.2%
Cc1ccc(C)c(CN2CCC(CNC(=O)Nc3ccc(F)c(Cl)c3)CC2)c1,2.0%
CCOC(=O)C1CCCN(C(=O)Cn2ncc3c(C)n(Cc4ccccc4F)c(C)c3c2=O)C1 (stereo not drawn),11.6%
CCCOc1ccccc1Cn1c(=O)sc2ccccc21,4.7%

# This is a subset. The share of hits here may be higher or lower than overall.
